Choline anaer gr: inhibitors of anaerobic choline-dependent gram-negative bacterial growth. Gram-negative bacterium anaerobic choline minimal medium, absorbance growth; hits give low values; many inactives read as strong as hits in the columns shown. calls only. 55,000 tested, 0.2% active. AID 1963822;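 active = growth z-score on choline under -2 at 7 or 20 h with little or no fall on glycerol, limits in tiers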;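 also: stock transfer was 300 nL into about 50 µL; the organism is E. coli; final concentration not given here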
Choline anaer gr early: recorded beside Choline anaer gr, whose call it bears; z-score; measured here: choline growth z-score, timepoint 1;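 score of optical density at 7 h as mean of two plates; lower means less growth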
Active calls of the source: *; i = inactive; & = joins results of further samples. An excerpt. The share of hits here may be higher or lower than overall.

Preview, two compounds:
SMILES	Choline anaer gr	Choline anaer gr early
C=CCSc1nc2sc3c(c2c(=O)[nH]1)CCc1ccccc1-3	i	1.2
Cn1c(CN(c2ccc(F)cc2)S(C)(=O)=O)nnc1SCC(=O)Nc1ccc(F)cc1Cl	i	2.4

Main list (from the top)
SMILES	Choline anaer gr	Choline anaer gr early
C=CCSc1nc2sc3c(c2c(=O)[nH]1)CCc1ccccc1-3	i	1.2
Cn1c(CN(c2ccc(F)cc2)S(C)(=O)=O)nnc1SCC(=O)Nc1ccc(F)cc1Cl	i	2.4
C=Cc1ccc(CSc2ccc(-n3nc4c(c3C)CCC4)nn2)cc1	i	2.1
COc1ccc2c(c1)c1ncn(CCN3CCN(Cc4ccccc4)CC3)c(=O)c1n2C	i	0.23
CCOc1ccccc1NC(=O)N1CCC2(CC1)Nc1ccccc1-n1cccc12	i	-1
O=C(CCC(=O)N1CCc2cc(S(=O)(=O)N3CCCC3)ccc21)N1CCCCC1	i	-0.33
CCc1ccc(OCc2nc(C)c(C(=O)NC3CC3)s2)cc1	i	0.34
O=C1COc2ccc(S(=O)(=O)N3CCCC3C(=O)NCc3ccccc3Cl)cc2N1 (stereo not given)	i	-0.17
CC(=O)Nc1nc2ccc(NC(=O)C(C)C)cc2s1	i	-0.77
O=C(CSc1nc(=O)n(Cc2ccncc2)c2c1CCC2)Nc1nccs1	i	1.4
CCN1CCN(c2cc(C)nc3c(C)c(-c4ccc(OC)c(OC)c4)nn23)CC1	i	0.11
O=C(Cn1c(=O)sc2ccccc21)N1CCN(c2ccccc2)CC1	i	0.53
CCOC(=O)c1cc2ccsc2n1CC(=O)Nc1ccc(Cl)cc1	i	1.8
CCC(=O)N1CCc2cc(N3CC(C(=O)N4CCCN(C)CC4)CC3=O)ccc21 (stereo not given)	i	0.21
O=C(Nc1ccc2c(c1)OCCO2)c1ccc(Nc2ccc(-c3ccccc3)nn2)cc1	i	-2
O=C(Nc1ccccc1F)c1ccc(-n2nnc3cccnc32)cc1	i	0.82
Cc1ccc(/C=C/c2onc(C)c2S(=O)(=O)N2CCCC(C(=O)Nc3ccc(C)cn3)C2)cc1 (stereo not given)	i	2
COc1ccc(-c2oc3ccc(OC)cc3c2C(=O)Nc2ccc(N(C)C(C)=O)cc2)cc1	i	0.35
Cc1cc(C2CCCN2C(=O)c2cc(C3CC3)on2)on1 (stereo not given)	i	-1.1
Cc1cc(N2C(=O)CCS2(=O)=O)ccc1S(=O)(=O)NC1CCS(=O)(=O)C1 (stereo not given)	i	0.05
CCc1ccc(NC(=O)Cn2nc3ccc(S(=O)(=O)C(C)(C)C)nn3c2=O)cc1	i	-0.19
Cc1oc2ncn(CC(=O)NCCN3CCOCC3)c(=O)c2c1C	i	-0.59
Cc1cc(-c2cc(S(=O)(=O)N3CCOCC3)c(C)s2)on1	i	0.17
CCOc1ccc(C2C3=C(CC(C)(C)CC3=O)Nc3onc(C)c32)cc1 (stereo not given)	i	-0.2

Entries above that contain a thiophene ring, fused or not, in the order listed:
SMILES	Choline anaer gr	Choline anaer gr early
C=CCSc1nc2sc3c(c2c(=O)[nH]1)CCc1ccccc1-3	i	1.2
CCOC(=O)c1cc2ccsc2n1CC(=O)Nc1ccc(Cl)cc1	i	1.8
Cc1cc(-c2cc(S(=O)(=O)N3CCOCC3)c(C)s2)on1	i	0.17

Next entries.
SMILES	Choline anaer gr	Choline anaer gr early
CC(CS)C(=O)N1CCCC1C(=O)O (stereo not given)	i	0.1
COc1ccc(CCC(=O)Nc2cccc3nsnc23)cc1	i	1.1
Cc1ccccc1CNC(=O)C1(C)CCCN(C(=O)NCCC(C)C)C1 (stereo not given)	i	-0.18
CCCCc1nnc2sc(-c3c[nH]c4ccccc34)nn12	i	-0.11
CN(Cc1nc2ccccc2n1C)S(=O)(=O)c1ccc(F)cc1	i	-0.18
CC(C)c1nnc(-c2ccsc2)o1	i	-0.97
C#CCOc1ccc(C2Nc3ccc(C)cc3[C@H]3OCCC[C@@H]23)cc1 (stereo not given in full)	i	0.86
O=C(NCCc1csc(-c2ccccc2)n1)[C@H]1CCCN1C(=O)Cc1cccc(F)c1	i	0.33
CCc1nc(-c2cc(S(=O)(=O)Nc3cc(C)ccc3C)c(C)s2)cs1	i	-1.1
N#Cc1c(NC(=O)c2nc(-n3cnnc3)ccc2Br)sc2c1CCCC2	i	-0.9
O=c1c2sccc2n2c(=S)[nH]nc2n1Cc1ccccc1	i	-1.6
c1ccc2c(c1)nc1n2CCN(C2CCCCC2)C1	i	-0.28
CCOc1ccc2oc(-c3ccccc3)c(C(=O)Nc3ccc(OC)cc3)c2c1	i	1.1
COC(=O)C1=C(c2ccccc2)c2ccccc2S(=O)(=O)N1CC(=O)Nc1ccc(OC)cc1OC	i	0.59
Nc1c(-c2ccncc2)[nH]c2ccc(F)cc12	i	-4.3
O=C(NC1CCCCC1)c1cccn2c(-c3ccc(F)cc3)nnc12	i	0.09
CCCn1c(=O)c2ccccc2n2c(SCC(=O)NC(C)CC)nnc12 (stereo not given)	i	-0.77
CC(C)CC(=O)N1CCC2(CC1)Nc1ccccc1-n1cccc12	i	-0.95
CCOc1ccc(C2=NC(c3ccccc3)=Nc3ccc(Cl)cc3N2)cc1	i	0.03
Cc1cc(C)cc(NC(=O)Nc2c[nH]c(=O)[nH]c2=O)c1	i	0.56
COc1ccc(OC)c(CNC(=O)c2ccc(-c3ccc(S(=O)(=O)N4CCCC4)cc3)cc2)c1	i	1.8
Cc1ccc(-c2nc3nc(C)cc(N4CCN(c5ccccn5)CC4)n3n2)cc1	i	-0.61
Cc1ncc([N+](=O)[O-])n1CC(C)O (stereo not given)	i	0.4&0.55&0.64
COc1ccc(CNC(=O)c2cc3c(s2)-c2c(C)nn(-c4ccccc4)c2CC3)c(OC)c1	i	-0.69
CN1C(=O)c2ccccc2Sc2cc(-c3noc(-c4ccnn4C)n3)ccc21	i	0.16
CC1(C)CN2C(=O)N(c3ccc4c(c3)OCCO4)C(c3ccccc3)N2C1 (stereo not given)	i	0.83
CC(C)c1ccccc1Cc1cc(C(=O)Nc2ccc(S(=O)(=O)c3ccccc3C(C)(C)C)cc2)c(O)c(O)c1O	i	0.12
CCC(Sc1nnc2n1CCN2c1ccc(OC)cc1)C(=O)OC (stereo not given)	i	-0.24
O=c1c2[nH]c3ccc(F)cc3c2ncn1Cc1ccccc1	i	0.39
Cc1ccc(NC(=O)CSc2nn3c(=O)c(Cc4ccccc4)nnc3s2)cc1	i	-0.15
Cc1ccc(Nc2ncnc3c2cnn3C)c(C)c1	i	-0.81
Cc1ccc(-c2nc3ccccc3c3nnc(SCC(=O)NC4CC4)n23)cc1	i	0.33
NC(=O)c1cc[n+](CC2=C(C(=O)O)N3C(=O)[C@@H](NC(=O)[C@@H](c4ccccc4)S(=O)(=O)[O-])[C@H]3SC2)cc1	i	0.54&0.2
COc1ccc(CNCCSc2nnnn2C)cc1	i	0.37
CCOC(=O)c1[nH]c(C)c(S(=O)(=O)N2CCOCC2)c1C	i	-0.92
O=C1CCCc2nc(Nc3ccc(F)cc3)ncc21	i	0.51
NC(=O)C1CCN(C(=O)c2ccc(Cn3c(SCc4ccc(F)cc4)nc4cccnc43)cc2)CC1	i	1.4
COc1cc(NC(=O)C2CCN(C(=O)c3cccn3-c3cccnc3)CC2)cc(OC)c1	i	-0.49
COC(=O)c1ccc2c(=O)n(-c3ccc(OC)cc3)c(N3CCSC3)nc2c1	i	-0.93
CCNS(=O)(=O)c1ccc2c(c1)N(C(C)=O)CCCS2	i	-0.99
Cn1c(=O)c2nc(S(=O)(=O)CCC(=O)Nc3cccc(Br)c3)n(C)c2n(C)c1=O	i	1.1
Cn1cc(CCC(=O)NCCCc2ccccc2)c2ccccc21	i	-0.32
O=C(C1CCCN(c2nnc(N3CCCCC3=O)s2)C1)N1CCN(c2ccccn2)CC1 (stereo not given)	i	0.83
CCOc1ccc(C2CC(=O)Nc3c2c(C)nn3-c2ccc3nnc(C)n3n2)cc1OC (stereo not given)	i	-0.69
Cc1nc2cc(-c3noc(-c4ccc5c(c4)OCO5)n3)ccc2o1	i	-1.3
CCOc1ccc(-c2cc3c(SCC(=O)c4cccc(Cl)c4)nccn3n2)cc1	i	-1.4
O=c1c2ccccc2[nH]c(=S)n1C1CC1	i	-1.4
Cc1cccc(NC2=NC(c3ccccc3)n3c(nc(C)cc3=O)N2)c1 (stereo not given)	i	-1.1

A second format for some results above.
Compound,Choline anaer gr,Choline anaer gr early
O=c1c2ccccc2[nH]c(=S)n1C1CC1,i,-1.4
O=C(C1CCCN(c2nnc(N3CCCCC3=O)s2)C1)N1CCN(c2ccccn2)CC1 (stereo not given),i,0.83
COC(=O)c1ccc2c(=O)n(-c3ccc(OC)cc3)c(N3CCSC3)nc2c1,i,-0.93

Remaining list, next part.
SMILES	Choline anaer gr	Choline anaer gr early
Cc1ccc(C(=O)c2cn(CC(=O)NCC3CCCO3)c3nc(C)ccc3c2=O)cc1 (stereo not given)	i	-0.22
CCCC(=O)C1=C(c2ccc(Br)cc2)N(C(=O)CCC)n2c(C)nnc2S1	i	-0.28
CCN(CC)CCOCCOC(=O)C1(c2ccccc2)CCCC1	i	0.16&-0.02&-0.79
O=C(c1cnc2sccn2c1=O)N1CCN(Cc2ccccc2)CC1	i	-1.2
O=C(NCc1ccco1)N1C[C@@H]2C[C@H](NS(=O)(=O)c3cccs3)[C@H]1C2	i	-0.12
CCCOc1ccccc1C1Oc2nc(SCC)nnc2-c2ccccc2N1C(C)=O (stereo not given)	i	-0.56
O=C(NCCCNc1nc(Nc2cccc(NC(=O)N3CCCC3)c2)ncc1I)c1cccs1	i	0.53
CCCn1c(=O)c(N2CCC(NC(=O)Nc3ccc(C)cc3)CC2)nc2ccccc21	i	-1.4
COc1ccc(-n2c(=O)[nH]cc(C(=O)Nc3ccc(S(N)(=O)=O)cc3)c2=O)cc1	i	-0.24
CC(Nc1ncnc2c1CCC2)c1ccccn1 (stereo not given)	i	-0.81
COCCn1c(SCC(=O)NCC2CCCO2)nc2c(c1=O)SCC2 (stereo not given)	i	-0.43
Cc1nc(Nc2ccc(NS(=O)(=O)c3ccccc3)cc2)cc(N(C)C)n1	i	-0.33
O=C(COc1ccccc1)NCc1nc2ccccc2[nH]1	i	-1.6
CCOCCCNC(=O)NC1CCN(c2nc3cccnc3n(CC)c2=O)CC1	i	-0.63
O=C(NC1CC1)c1ccc2c(c1)N(Cc1ccccc1)C(=O)CS2=O (stereo not given)	i	0.84
CCCn1c(=O)c2sccc2n2c(=O)[nH]nc12	i	0.3
CC(=O)O[C@]1(C(C)=O)CC[C@H]2[C@@H]3C=C(Cl)C4=CC(=O)CC[C@]4(C)[C@H]3CC[C@@]21C	i	0.6
Oc1c(C(Nc2ccc(Cl)cc2)c2cccnc2)ccc2cccnc12 (stereo not given)	i	0.05
CN(C)CCCN1c2ccccc2CCc2ccccc21	i	0.74&0.72&-0.91
CCSc1ncc2c(=O)n(CC(=O)Nc3ccc(C)cc3C)cnc2n1	i	1.5
CCOc1ccc(OCC)c(NS(=O)(=O)c2cc(-c3cc(CC)no3)cs2)c1	i	0.95
CC(C)n1c(N2CCN(C(=O)c3cnccn3)CC2)cc(=O)n(C(C)C)c1=O	i	-0.04
O=C(NCCCN1CCCC1=O)c1cc2ccc3cccnc3c2[nH]1	i	-1.6
O=C(Nc1ccc2c(c1)OCO2)N1CCCC1c1ccc(Cl)cc1 (stereo not given)	i	-0.13
Cc1ccc(-n2ncc(C(=O)Nc3ccccc3Cl)c2C2CCNCC2)cc1C	i	-0.61
Cc1cccc(Cn2c(C)c(CNCCc3c[nH]c4ccccc34)c(C(=O)O)c2C)c1	i	1.1
CCN(CC)CCNC(=O)c1cc(C)nc2ccc(Br)cc12	i	-1.4
CCC(SC1=NS(=O)(=O)c2cc(F)ccc2N1)C(=O)OC (stereo not given)	i	-0.36
COc1ccc(OCC(=O)N2CCOc3ccc(CN(Cc4ccc(F)cc4)C(C)=O)cc3C2)cc1	i	0.14
COc1ccc(-c2cncc(C(=O)NCc3ccc(OC)cc3OC)c2)cc1	i	1.2
CC(C)c1cccc(NC(=O)c2nn(C)c(C(F)(F)F)c2Cl)c1	i	-0.49
Cc1ccc(C)c(CN2CCC(CNC(=O)Nc3ccccc3)CC2)c1	i	-0.03
O=C(NCc1cccc(Br)c1)C1CCCN(C(=O)C2Sc3ccccc3NC2=O)C1 (stereo not given)	i	0.6
O=C(COc1ccccc1)Nc1nc(-c2ccccc2)ns1	i	0.14
C=CCNS(=O)(=O)c1ccc(N2C(=O)CCS2(=O)=O)cc1	i	-0.28
Cc1ccc(C2=CC(c3ccccc3)n3nc(N4C(=O)CCC4=O)nc3N2)cc1 (stereo not given)	i	-0.01
CCOC(=O)c1cnc(SC(CC)C(=O)Nc2ccc(Br)cc2)nc1N (stereo not given)	i	0.87
Cc1cc(=O)n2[nH]c(CN(C(=O)c3ccc(C(C)(C)C)cc3)c3ccc(F)cc3)nc2n1	i	0.53
O=C(O)CC1C(=O)NCCN1Cc1cccc(F)c1 (stereo not given)	i	-0.06
O=S(=O)(c1ccc(F)cc1)N1CCC2(CC1)Nc1ccccc1-n1cccc12	i	-0.52
COc1cccc(NC(=O)Nc2ccc3nc4n(c(=O)c3c2)CCCC4)c1	i	0.63
CNc1ncnc2c1ncn2[C@@H]1O[C@H](CO)[C@@H](O)[C@H]1O	i	0.35
CCN1CCn2c(nc3ccccc32)C1	i	-1.7

Another view of part of the listing above.
| smiles | Choline anaer gr | Choline anaer gr early |
| --- | --- | --- |
| Cc1cc(=O)n2[nH]c(CN(C(=O)c3ccc(C(C)(C)C)cc3)c3ccc(F)cc3)nc2n1 | i | 0.53 |
| CCN1CCn2c(nc3ccccc32)C1 | i | -1.7 |
| O=S(=O)(c1ccc(F)cc1)N1CCC2(CC1)Nc1ccccc1-n1cccc12 | i | -0.52 |
